# GIV Gai3 FP: blocks GIV peptide binding to rat Galpha-i3. P08753. Galpha-i3/FITC-GIV peptide fluorescence polarization, 90 min; hits give low values; scaled: aluminum fluoride 0%, vehicle 100%. percent of control (FP), % (concentration not given with the values). 0.42% of 210,000 active;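 active means replicate mean at 85% of control or lower, very high polarization wells dropped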;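 further: wells of about 15 µL received 100 nL stock; the first replicate is given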
# Target sequence (P08753 whole entry, looked up): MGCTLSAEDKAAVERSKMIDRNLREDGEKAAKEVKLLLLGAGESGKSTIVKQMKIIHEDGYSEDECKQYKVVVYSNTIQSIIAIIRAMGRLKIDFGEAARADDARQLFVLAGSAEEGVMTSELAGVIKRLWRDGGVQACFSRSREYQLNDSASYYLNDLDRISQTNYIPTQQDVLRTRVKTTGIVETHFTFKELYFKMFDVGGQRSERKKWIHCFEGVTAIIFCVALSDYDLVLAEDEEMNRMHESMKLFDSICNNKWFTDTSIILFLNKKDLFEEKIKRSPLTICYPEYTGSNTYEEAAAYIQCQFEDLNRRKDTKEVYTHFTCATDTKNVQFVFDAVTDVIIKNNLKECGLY
# Starred values were filed as active, the others as inactive. Not all compounds are listed, so the mix of outcomes need not match the whole.
SMILES,GIV Gai3 FP
OC1(c2ccc(F)cc2)CN(c2ccccc2)C2=[N+]1CCS2 (stereo not given),105
Oc1ccc(Nc2nc(Cl)nc(NCc3ccco3)n2)cc1,99
O=C(NCc1nnc(C(=O)Nc2ccc(F)cc2)s1)Nc1ccc(Br)cc1,105
O=c1c2cc3c(cc2nc(SCc2nc(-c4ccc(Br)cc4)no2)n1C1CC1)OCO3,103
O=C(Nc1c2c(nn1-c1ccc(Cl)cc1)CSC2)c1cc2ccccc2oc1=O,109
Cc1sc2nc(Cc3ccccc3)n(CC(=O)Nc3cccc(C(F)(F)F)c3)c(=O)c2c1C,112
Cc1nc(N2CCCC2)c2c(C)c(C(=O)NCCC3=CCCCC3)sc2n1,109
Cc1nn(-c2ccc(F)cc2)c2sc(C(=O)NC3CCCC3)cc12,108
CCOC(=O)CSc1nc2sc(C(=O)N3CCc4ccccc4C3)c(C)c2c(=O)n1CCc1ccccc1,118
c1coc(-c2nnc(SCc3nc4ccccc4[nH]3)o2)c1,106
Cn1cc(C(=O)O)c(S(=O)(=O)N2CCCC2)n1,110
CC(=O)N1CCC(C(=O)NCc2ccccc2)(N(Cc2ccc(OC(C)C)cc2)C(=O)c2ccc(C)cc2)CC1,109
CC1(C)Cc2c(c(-c3ccco3)nc3oc(C(=O)c4ccc(Br)cc4)c(N)c23)CO1,115
COc1ccc(NS(=O)(=O)c2cc(-c3nc(C)c(C(=O)N4CCCC4)s3)n(C)c2)c(OC)c1,100
N#CC1=C(N)C(C#N)(C#N)C(c2ccccc2I)C2CCCC=C12 (stereo not given),111
COc1ccc(CNc2nc(SCc3cc(=O)n4ccccc4n3)nc3ccccc23)cc1,128
Cc1ccnc(Nc2nc(-c3ccc(C)cc3C)cs2)c1,97
Cc1c(Cl)cccc1N1C(=O)C2C(c3ccc(Br)cc3)OC3(C(=O)c4ccccc4C3=O)C2C1=O (stereo not given),123
CCCCn1nc2ccc(S(=O)(=O)N3CCC(C)CC3)cn2c1=O,99
Cc1nn(-c2nc3ccccc3o2)c2c1C(c1ccc(F)c(Br)c1)CC(=O)N2 (stereo not given),113
Cc1cc(C2CCCN2S(=O)(=O)c2ccc(C(C)C)cc2)on1 (stereo not given),97
O=C(NCCCN1CCCC1)C1CCCN(c2ncc(-c3ccc(F)cc3)cn2)C1 (stereo not given),104
CC(=O)c1c(C)oc2ccc(N(C(C)=O)S(=O)(=O)c3ccc(C)cc3)cc12,127
COc1ccc(NC(=O)c2ccc(Oc3nccnc3Oc3ccc(C)cc3)cc2)cc1OC,103
O=C(c1cccc(Cl)c1)N1c2ccccc2CCc2ccccc21,109

# More structures follow:
SMILES,GIV Gai3 FP
CCN(Cc1ccccc1)C(=O)c1cc(NC(=O)c2ccccc2Cl)cnc1N1CCNCC1,99
COc1cc(C2CC(=O)Nc3c2cc(Br)c2ccccc32)cc(Br)c1OC (stereo not given),108
Cc1ccc(C(=O)N2c3ccccc3N=C(c3ccc(Cl)cc3)CC2c2ccccc2)cc1 (stereo not given),108
CCc1ccc(C2CC(=O)Nc3c2ccc2ccccc32)cc1 (stereo not given),110
CCN(Cc1ccccc1)c1ccc(NC(=O)c2cccc(C)c2)cc1C(=O)O,97
CCOC(=O)C1CCC(CNC(=O)Nc2c[nH]c(=O)[nH]c2=O)CC1 (stereo not given),95
O=C1CC(c2cccc(Cl)c2Cl)c2cc(Br)c3ccccc3c2N1 (stereo not given),107
Cc1ccc(Cn2cc(C(=O)Nc3ccccc3C(N)=O)ccc2=O)cc1,104
COc1ccc(N2S(=O)(=O)c3ccccc3S2(=O)=O)c(OC)c1,103
Cc1nc(-c2csc(S(=O)(=O)N3CCCC(C(=O)NCc4cccnc4)C3)c2)no1 (stereo not given),105
CCCS(=O)(=O)c1c(S(=O)(=O)CCC)c2c(C)cccn2c1C(=O)N/N=C/c1cccc(OC)c1,108
CCCn1cnnc1C1CCCN(C(=O)c2n[nH]c3c2CCCC3)C1 (stereo not given),105
CCOc1cccc(N2C(=O)NC(=O)/C(=C/c3ccc(Oc4ccc([N+](=O)[O-])cn4)cc3)C2=O)c1,109
COc1cccc(CC(=O)N2CCC[C@@H]2C(=O)NCc2csc(C)n2)c1,99
O=C(NC1CC1)C1CCN(c2ncnc3onc(-c4cccc(F)c4)c23)CC1,99
COc1cc2c(cc1OC)C(Nc1ccc(Cl)c(Cl)c1)=NC(C)(C)C2,107
CCS(=O)(=O)N1CCCN(C2=NS(=O)(=O)C(c3ccc(Cl)cc3)=C2C)CC1,104
CCOC(=O)C1=C(C)NC2=C(C(=O)C(C(=O)OCC)C(c3ccc(OC)cc3)C2)C1c1ccc2c(c1)OCO2 (stereo not given),103
O=C(NC1CCCC1)c1cn2c(n1)CSCC2,103
Clc1cccc(Nc2nc(NCC3CCCO3)nc3c2cnn3-c2ccccc2)c1 (stereo not given),103
Cc1cc(NC(=O)CSc2nc3ccc(Br)cc3c3nc4ccccc4n23)no1,131
CCOc1ccc(-c2[nH]nc3c2C(c2cc(OC)c(OC)c(OC)c2)C(C#N)=C(N)O3)cc1OC (stereo not given),106
Cc1cc(C)cc(-n2c(CN3CCN(S(=O)(=O)c4c(C)cc(C)cc4C)CC3)nc3cccnc32)c1,112
CCCOc1ccc(NC(=O)C2CC(=O)N(C)C(=Nc3ccc(OCC)cc3)S2)cc1 (stereo not given),109
CCOCCCNS(=O)(=O)c1cc2c(cc1C)NC(=O)CO2,100

# Following part:
SMILES,GIV Gai3 FP
O=C(NC(Cc1c[nH]c2ccccc12)C(=O)Nc1cccnc1)OCc1ccccc1 (stereo not given),107
COc1ccc(C2CC(=O)Nc3c2c(C)nn3-c2nncc(-c3ccc(F)cc3)n2)cc1OC(C)C (stereo not given),98
Cc1cc(-c2ccc(=O)[nH]n2)cc(S(=O)(=O)N(C)Cc2ccccc2)c1C,107
CN1CCN(C(=O)c2ccc(NCCc3ccc(Cl)cc3)c(S(=O)(=O)Nc3cccc(C(F)(F)F)c3)c2)CC1,101
Cc1cc(C)c(C)c(C(=O)CC2(O)C(=O)Nc3ccccc32)c1C (stereo not given),122
CC(C)CCNC(=O)C1(c2ccc(NC(=O)c3ccc(Br)cc3)cc2)CC1,104
COCCCN1CCc2nc(SCc3ccc(C)cc3)[nH]c(=O)c2C1,101
COc1ccc(NC(=O)CSc2nc3n[nH]c(C)c3c(=N)n2-c2cccc(Cl)c2C)c(OC)c1,97
O=C(NCCc1c[nH]c2ccccc12)c1ccccc1NC(=O)c1nsc2ccccc12,103
Cc1cccc2c1CC(C)(C)N=C2C1=C(O)CCCC1=O,106
O=C(NCCCN1CCN(c2ccccc2F)CC1)c1csc(-c2ccncc2)n1,107
Cc1cc(C2CCCN2C(=O)c2cc(C(C)C)no2)on1 (stereo not given),103
O=C(O)C1CCC(N2C(=O)C3CCCCC3C2=O)CC1 (stereo not given),104
COc1ccc(-c2cc(C(=O)N3CCCC3c3cc(C)on3)no2)cc1OC (stereo not given),101
O=c1[nH]nc(-c2ccccc2)c(=O)[nH]1,106
O=C1COc2ccccc2N1Cc1nc(-c2ccc3c(c2)Sc2ccccc2C(=O)N3C2CCCC2)no1,100
CCOc1cc(C2Nc3ccc(C)cc3[C@H]3OCC[C@@H]23)cc(Cl)c1OCC (stereo not given in full),100
Cc1ccsc1CN1CCCC1c1cc(C(C)C)on1 (stereo not given),102
O=C(Nc1ccccc1)Nc1c(-c2ccsc2)nc2ccccn12,100
c1ccc(-c2nnc(-c3cccnc3NCc3ccccn3)o2)cc1,106
CC(=O)NCCNS(=O)(=O)c1cccc2nsnc12,109
CCCCCCCCCCOc1ccc(OC(=O)c2ccc(OCCCCCC)cc2)cc1,117
CCCCCCCCCc1cnc(-c2ccc(OCCCCCCCC)cc2)nc1,113
O=C(NC1CCCCC1)c1cccc(Oc2ccnc(-c3ccc(F)cc3)n2)c1,105
Cc1ccc(CN2CCCC2c2cc(C(C)C)on2)c(C)c1 (stereo not given),101

# Remaining list, next part
SMILES,GIV Gai3 FP
CCc1cccc(N2C=C(C(=O)N3CCCC3)S(=O)(=O)c3ccccc32)c1,101
CC1(C)COC2(OC1)C(=O)N(CN1CCOCC1)c1ccccc12,104
CC1(C)CC(=O)C2=C(C1)N=C1c3ccccc3C(=O)C1C2c1cccs1 (stereo not given),112
CCOC(=O)C(C)NC(=O)N1CCCC1c1cc(C(C)C)no1 (stereo not given),100
c1ccc(Nc2nc3nonc3n3cnnc23)cc1,106
Cc1cccc(N2C(=O)C(N3C(=O)c4ccccc4C3=O)C2c2ccc(F)cc2)c1 (stereo not given),113
O=C(CSc1nc2ccc(Br)cc2c2nc3ccccc3n12)Nc1nccs1,108
COc1ccc(C2Sc3ccccc3NC3=C2C(=O)c2ccccc23)cc1OC (stereo not given),112
C=C(C)CN1CCN(CC(O)Cn2c3ccccc3c3ccccc32)CC1 (stereo not given),118
CCOC(=O)C1CCN(C(=O)Cn2nc3c(N4CCSCC4)nccn3c2=O)CC1,99
Cc1ccc(S(=O)(=O)n2c(SCc3ccccc3)nc3ccccc32)cc1,105
CCOC(=O)c1c(CN2CCN(C)CC2)n(C)c2cc(Br)c(OC)cc12,108
O=C(CCC(=O)Nc1nc(-c2cc3ccccc3oc2=O)cs1)NCc1ccc2c(c1)OCO2,106
O=C(O)c1cccc(N2C(=S)N=C(Nc3ccccc3)C23CCCCC3)c1,113
CNC(=O)Nc1ccc(C2(C(=O)N3CCCC3)CCC2)cc1,100
COc1cccc(C2C(N3C(=O)c4ccccc4C3=O)C(=O)N2c2cccc(OC)c2)c1 (stereo not given),115
CCOc1cc(C2Nc3ccc(Br)cc3[C@H]3OCCC[C@@H]23)ccc1OC (stereo not given in full),100
COc1ccc(Oc2ccnc(-c3cccc(C(=O)NCC(C)C)c3)n2)cc1,104
O=C(NC1CCCCC1)c1ccc(-n2c(=S)[nH]c3ccccc3c2=O)cc1,109
CC(=O)Nc1ccc(N2C(=O)C3C4c5ccccc5C(c5ccccc54)C3(C)C2=O)cc1 (stereo not given),110
CCCCOc1ccc(/C=C2/CCCC/C(=C/c3ccc(OCCCC)cc3)C2=O)cc1,106
Cc1csc(-c2csc(S(=O)(=O)N3CCCCCC3)c2)n1,99
Cc1sc(-c2cc(C(F)(F)F)[nH]n2)cc1S(=O)(=O)NCCc1cccs1,102
CCOC(=O)c1sc2nc(CC(=O)OC)nc(Nc3cccc(C)c3)c2c1C,104
CCCS(=O)(=O)c1nc2ccc(NS(=O)(=O)c3ccccc3F)cc2s1,100

# 15 of the compounds above, with values ahead of the structure.
GIV Gai3 FP | Structure
100 | CCOC(=O)C(C)NC(=O)N1CCCC1c1cc(C(C)C)no1 (stereo not given)
106 | c1ccc(Nc2nc3nonc3n3cnnc23)cc1
113 | Cc1cccc(N2C(=O)C(N3C(=O)c4ccccc4C3=O)C2c2ccc(F)cc2)c1 (stereo not given)
108 | O=C(CSc1nc2ccc(Br)cc2c2nc3ccccc3n12)Nc1nccs1
112 | COc1ccc(C2Sc3ccccc3NC3=C2C(=O)c2ccccc23)cc1OC (stereo not given)
118 | C=C(C)CN1CCN(CC(O)Cn2c3ccccc3c3ccccc32)CC1 (stereo not given)
99 | CCOC(=O)C1CCN(C(=O)Cn2nc3c(N4CCSCC4)nccn3c2=O)CC1
105 | Cc1ccc(S(=O)(=O)n2c(SCc3ccccc3)nc3ccccc32)cc1
108 | CCOC(=O)c1c(CN2CCN(C)CC2)n(C)c2cc(Br)c(OC)cc12
106 | O=C(CCC(=O)Nc1nc(-c2cc3ccccc3oc2=O)cs1)NCc1ccc2c(c1)OCO2
113 | O=C(O)c1cccc(N2C(=S)N=C(Nc3ccccc3)C23CCCCC3)c1
100 | CNC(=O)Nc1ccc(C2(C(=O)N3CCCC3)CCC2)cc1
115 | COc1cccc(C2C(N3C(=O)c4ccccc4C3=O)C(=O)N2c2cccc(OC)c2)c1 (stereo not given)
100 | CCOc1cc(C2Nc3ccc(Br)cc3[C@H]3OCCC[C@@H]23)ccc1OC (stereo not given in full)
104 | COc1ccc(Oc2ccnc(-c3cccc(C(=O)NCC(C)C)c3)n2)cc1

# (listing goes on)
SMILES,GIV Gai3 FP
CC(C)CC(=O)N1CCC(c2nnc(C(=O)Nc3ccc4c(c3)OCO4)s2)CC1,104
COc1ccc(C(NC(=O)COc2ccccc2)c2cc(Cl)c3cccnc3c2O)cc1 (stereo not given),113
Cc1cc(C)c2c(c1)[C@H]1OCCC[C@H]1C(c1ccccc1)N2 (stereo not given in full),98
CCCCN(CC)C(=O)Cn1c(=O)c2ccccc2n(CC)c1=O,109
Cc1c(NC(=O)CSc2nc3ccc(NC(=O)c4ccccc4Cl)cc3s2)c(=O)n(-c2ccccc2)n1C,121
CCc1onc(C)c1C1CCCN1Cc1cc(C)ccc1C (stereo not given),106
CCCCOc1ccc(C2C=C(Nc3ccc(CC)cc3)C(=O)N2c2ccc(CC)cc2)cc1 (stereo not given),104
Cc1ccccc1-c1noc(CCc2nnc3ccc(N4CCC(C)CC4)nn23)n1,106
Cc1ccc(NC(=O)CCc2nc(-c3ccc(N4CCCC4)cc3)no2)c(Br)c1,96
CC(C)CN(Cc1c(O)ccc2c3c(c(=O)oc12)CCC3)CC(C)C,108
Cc1ccc(CNC2=NCCNC23CCN(S(=O)(=O)c2ccc(F)cc2)CC3)cc1,102
Cc1cc(C)cc(NS(=O)(=O)c2c(C)sc(C)c2-c2cc(C)[nH]n2)c1,98
CCOc1c(OC)cc(C2C(C#N)=C(N)Oc3n[nH]c(-c4cccs4)c32)cc1OC (stereo not given),104
CCOC(=O)c1c(NC(=O)CSc2nnc(CNC(=O)c3cccs3)n2-c2ccccc2OC)sc2c1CCC2,104
CCOC(=O)C(NC(=O)c1ccccc1)(Nc1nc2ccccc2nc1C(F)(F)F)C(F)(F)F (stereo not given),108
C(=C\c1ccccc1)/CSc1nnc(-c2ccncc2)n1-c1ccccc1,117
CCC(=O)N1CCc2cc(CNS(C)(=O)=O)ccc21,105
Cc1c(Cl)c(C)c(C2=NON3N(C(=O)c4ccc(C(=O)c5ccccc5)cc4)c4ccccc4N23)c(C)c1Cl,105
CCOc1ccc(NC(=O)Cn2c3ccccc3n3c(=O)cc(-c4ccncc4)nc23)cc1,104
Cc1ccc(CNC2=NCCNC23CCN(S(=O)(=O)c2ccccc2)CC3)cc1,101

# Looked up one by one from above, 2 records:
SMILES,GIV Gai3 FP
CC(C)CN(Cc1c(O)ccc2c3c(c(=O)oc12)CCC3)CC(C)C,108
Cc1ccccc1-c1noc(CCc2nnc3ccc(N4CCC(C)CC4)nn23)n1,106
